Assay outcomes (PubChem BioAssay)
VACV mCherry inh – qHTS for Stage-Specific Inhibitors of Vaccinia Orthopoxvirus: mCherry Reporter Primary qHTS | Vaccinia virus mCherry reporter infection, fluorescence; about a quarter of the inactives have no number | Potency, µM (top dose mostly 36.5 µM), for the others: at the top dose activity change, negative = inhibition, most hits filed as inhibitors | 0.63% of 310,000 active | AID 720579, 2013; active = well fitted inhibition curve with a large enough effect; inconclusive = small, poorly fitted or top-dose-only effect; inactive = no such curve, though single readings can be large or run the other way; tested in A549 cells; further: nearly all actives have a fitted effect of over 35% in size; inactives centre near -10
Vaccinia Venus – qHTS for Stage-Specific Inhibitors of Vaccinia Orthopoxvirus: Venus Reporter Primary qHTS; Vaccinia virus Venus reporter expression, fluorescence; Potency, µM (top dose mostly 36.5 µM), without a hit: at the highest dose activity change, negative = inhibition, usual class: inhibitors; 0.46% of 330,000 active; AID 720580, 2013; active means well fitted inhibition curve with a large enough effect; inconclusive means small, poorly fitted or top-dose-only effect; inactive means no such curve, though single readings can be large or run the other way; tested in A549 cells; further: nearly all actives have a fitted effect of over 30% in size; inactives centre near -10
* hit, by the source's call; i = inactive; ? = inconclusive; / = no result given; & = joins results of further samples; [ ] = another dose, or the depositor's remark. On the % scale 0 is the no-effect control and ±100 the full control effect; potency means the concentration at half of the fitted maximal effect.

Order of values – Vaccinia Venus, VACV mCherry inh
- CCOC(=O)Cc1ccc(NC(=O)Nc2nnc(N3CCCCC3C)s2)cc1 (centres undefined)
 : -25%, -19%
- O=C1C(=O)N(CCN2CCOCC2)C(c2ccccn2)/C1=C(/O)c1ccc(F)cc1 (centres undefined)
 : 13%, 5%
- Cc1ccc(NC(=O)CN(C)C(=O)c2ccc(-n3cncn3)c([N+](=O)[O-])c2)cc1
 : 0%, -5%
- CCC(C)NS(=O)(=O)c1ccc(NC(=O)C2CCN(C(=O)c3ccco3)CC2)cc1 (centres undefined)
 : -16%, -22%
- CCn1c(SCc2nc3ccccc3[nH]2)nnc1-c1ccccc1OC
 : -28%, /
- Cn1ccnc1SCC(=O)Nc1cc(S(=O)(=O)N2CCOCC2)ccc1Cl
 : -4%, -18%
- CCC1Nc2ncnc(N3CCN(c4ccccc4)CC3)c2N(Cc2ccc(C)cc2)C1=O (centres undefined)
 : -24%, -20%
- CC(=O)c1cc(-c2ccc(F)cc2)n(CCC(=O)Nc2nc3c(C)cccc3s2)c1C
 : -30%, -29%
- COC(=O)c1ccc2c(C)c(C3(O)CCCCC3)[nH]c2c1
 : -27%, -13%
- COc1cc(OC)cc(C(=O)Oc2c(Sc3ccccc3)c(C)nn2C(C)(C)C)c1
 : -20%, -30%

Remaining list, next part:
Order of values – Vaccinia Venus, VACV mCherry inh
- COc1cc(=O)n2c(c1C(=O)NC(C)c1ccco1)CCN(C(=O)c1cc(C)cc(C)c1)CC2 (centres undefined)
 : -12%, -16%
- OC(c1ccccc1)C(O)C(c1ccccc1)N1CCCCC1 (centres undefined)
 : -3%, -1%
- CC(=O)N1N=C(c2ccccc2)OC1(C)CC(=O)Nc1ccccc1 (centres undefined)
 : -3%, -12%
- CC(C)(O)C1CC[C@@]2(C)C3CCC4[C@@]5(C)CCCC(C)(C)C5C(O)C[C@]4(C)[C@]3(C)CC[C@@H]12 (some centres undefined)
 : -14%, -16%
- CCn1c(=O)c2cc(C(=O)Nc3cc(C)c(Cl)cc3OC)sc2c2ccccc21
 : 0%, -2%
- N#CC(C(=O)O)=C1CCCC1
 : 13%, /
- COc1cc(/C=N/NC(=O)c2cnccn2)ccc1O
 : -6%, -12%
- COc1ccc(NC(=O)Cn2c(=O)n(-c3ccc(Cl)cc3)c(=O)c3c(C)c(C(=O)N(C)C)sc32)cc1Cl
 : -6%, 0%
- c1ccc(CCn2nnnc2C(c2cccs2)N2CCN(Cc3ccc4c(c3)OCO4)CC2)cc1 (centres undefined)
 : -16%, i
- COc1ccccc1-c1nnc(SCC(=O)N2CCOCC2)n1-c1ccccc1
 : -8%, -16%

(more compounds)
Order of values – Vaccinia Venus, VACV mCherry inh
- C/C(=N\Nc1ccc(Cl)c(C(=O)O)c1)c1ccc(Br)s1
 : -6%, -15%
- CC(=O)Nc1ccc(NC(=O)CSc2ncc(C(=O)Nc3ccc(F)cc3)c(=O)n2C)cc1
 : -6%, i
- COCCN(C(=O)CSc1ncccn1)c1c(N)n(Cc2ccccc2)c(=O)[nH]c1=O
 : -9%, i
- O=C1NC(=O)C(Cc2ccc(Cl)cc2)(c2ccccc2)N1 (centres undefined)
 : -10%, -1%
- C[C@@H](NC(=O)[C@@H]1Cc2ccccc2CN1C(=O)OC(C)(C)C)C(=O)NC1CCCCC1
 : -10%, i
- CCOc1ccc(/C=C/C(=O)c2ccc(-c3ccccc3)cc2)cc1
 : -7%, -11%
- O=C(COC(=O)c1ccc(S(=O)(=O)Nc2ccccc2)cc1)NCCC1=CCCCC1
 : -5%, -8%
- CC(NC(=O)c1ccc(S(C)(=O)=O)cc1)c1cccc2ccccc12 (centres undefined)
 : -4%, -23%
- COc1ccc(C(=O)n2cnc(N)n2)cc1
 : 2%, -13%
- CC1(Cc2ccc(Cl)cc2)C(=O)Nc2c(Cl)ccc(Cl)c21 (centres undefined)
 : -12%, i

Next section
Order of values – Vaccinia Venus, VACV mCherry inh
- O=C(Nc1cccc2c1[nH]c(=O)c1ccccc12)C(F)(F)F
 : -6%, i
- Cc1ccc(NC(=O)CC[C@H]2O[C@@H](n3cnc4c(NC(=O)c5ccccc5)ncnc43)[C@H](O)[C@@H]2O)cc1C
 : 4%, 33%[activator]
- Cc1cc(NC(=O)Cn2nc(C(F)(F)F)c3c2CCC3)no1
 : -2%, /
- COc1ccccc1NC(=O)c1sc(NC(=O)c2ccco2)c(C#N)c1C
 : -4%, i
- O=C(CCCNC(=O)c1ccc(Cl)cc1)NCc1ccc(F)cc1
 : 0%, -11%
- CN(C1CCCCC1)S(=O)(=O)c1ccc(NC(=O)C2CCCCC2C(=O)O)cc1 (centres undefined)
 : 107%[activator], /
- O=C(/C=C\Nc1cccc(F)c1)c1cccs1
 : -7%, -15%
- O=C(N/N=C/c1ccc(O)cc1)c1csc2ccccc12
 : ?, /
- CCS(=O)(=O)c1nc(S(=O)(=O)c2ccc(C)cc2)c(N2CCOCC2)s1
 : 0%[7.34 µM], -4%[7.34 µM]
- Cc1nn(-c2ccccc2)c2c1N(CCCC(=O)NCc1ccc(Cl)cc1)C(=O)CS2
 : -19%, -18%

Continued:
Order of values – Vaccinia Venus, VACV mCherry inh
- CC(C)CC(=O)Nc1nnc(S(=O)(=O)N2CCc3ccccc32)s1
 : -18%&-7%, -8%
- CCc1ccccc1N(C)C(=O)c1cc2c(Cl)nc3ccc(C)cc3c2s1
 : -7%, -2%
- O=[N+]([O-])c1ccc(NN=CC2CCCCCC2)c([N+](=O)[O-])c1
 : 0%, 0%
- O=C(NNC(=O)C1CCC1)c1ccccc1F
 : 1%, -6%
- CCOC(=O)c1cnc(-n2nc(C)cc2C)nc1NC1CCCCC1
 : ?, ?
- C=CCNC(=O)Cc1c(OC)ccc2cc(Br)ccc12
 : -25%, -21%
- CN1C(C(=O)NCC2CC2)CC2Cn3c(nc4cc5ccccc5cc43)C21 (centres undefined)
 : -10%, i
- CCn1c(C)c(C)c2cc(C(=O)NCc3ccc(N(C)C)cc3)ccc21
 : -4%, -7%
- COCCCNC(=O)c1cc(-c2ccc(OC)cc2)nc2n[nH]c(-c3ccc(Cl)cc3)c12
 : -5%, -9%
- O=C(COc1cccc2ccccc12)Nc1ccc(Cl)cc1C(=O)O
 : -4%, -15%

(next part)
Order of values – Vaccinia Venus, VACV mCherry inh
- Cc1cc(/C=C2\C=Cc3ccccc32)ccc1N(C)C
 : -10%, -20%
- COc1cc(OC)cc(-c2nc(N)n[nH]2)c1
 : -15%, /
- CCC(OC(=O)c1cccs1)C(=O)NC1CCCCC1 (centres undefined)
 : -18%, -11%
- Cc1ccc(-n2nc(C)c3c(C(=O)NCc4ccc(F)cc4)cc(C)nc32)cc1
 : -3%, -7%
- COc1ccccc1CN1CC(C(=O)N(C)Cc2[nH]c3ccccc3c2C)CCC1=O (centres undefined)
 : -17%, -11%
- N#CCOc1ccccc1/C=C/c1nc2ccccc2c(=O)[nH]1
 : -20%, -4%
- O=C(CC(c1ccccc1)c1cc(Cl)ccc1O)N1CCCC1 (centres undefined)
 : -19%, ?
- NS(=O)(=O)c1ccc(NC(=S)NCc2ccco2)cc1
 : -6%, -2%
- Cc1ccc(Cc2ccc(C(=O)NNC(N)=S)o2)cc1
 : -8%, 0%
- CC(=O)c1ccc(OCc2ncc(C(F)(F)F)cc2Cl)cc1
 : -2%, -21%

Among those listed so far, these have a furan ring, fused or not:
Order of values – Vaccinia Venus, VACV mCherry inh
- CCC(C)NS(=O)(=O)c1ccc(NC(=O)C2CCN(C(=O)c3ccco3)CC2)cc1 (centres undefined)
 : -16%, -22%
- COc1cc(=O)n2c(c1C(=O)NC(C)c1ccco1)CCN(C(=O)c1cc(C)cc(C)c1)CC2 (centres undefined)
 : -12%, -16%
- COc1ccccc1NC(=O)c1sc(NC(=O)c2ccco2)c(C#N)c1C
 : -4%, i
- NS(=O)(=O)c1ccc(NC(=S)NCc2ccco2)cc1
 : -6%, -2%
- Cc1ccc(Cc2ccc(C(=O)NNC(N)=S)o2)cc1
 : -8%, 0%

Next results
Order of values – Vaccinia Venus, VACV mCherry inh
- COc1ccc(C(=O)N/C(=C/c2ccco2)C(=O)NCc2ccco2)cc1
 : -7%, i
- COc1ccc(NC(=S)N2CCCC2)cc1OC
 : -12%, -15%
- O=C(Nc1ccccc1OCc1cc(=O)n2ccccc2n1)Nc1ccccc1C(F)(F)F
 : -6%, -2%
- CC(=O)c1ccc(NC(=O)CSc2nc(=O)n(CCN3CCOCC3)c3c2CCC3)cc1
 : -10%, -14%
- CCOC(=O)Cc1csc(NC(=O)c2c(O)c3ccccc3n(CCC(C)C)c2=O)n1
 : -12%, i
- COc1cc(C(=O)Nc2ccc(OCc3cc(=O)n4ccc(C)cc4n3)cc2)cc(OC)c1OC
 : -12%, -17%
- COc1ccc(C(=O)N/C(=C\c2cn(C)c3ccccc23)C(=O)NCCCn2ccnc2)cc1
 : -7%, ?
- Cc1cccc(N2CCN(C(=O)C3CCN(S(=O)(=O)c4c(C)noc4/C=C/c4ccccc4F)CC3)CC2C)c1 (centres undefined)
 : -9%[7.34 µM], -12%[7.34 µM]
- CCOc1ccc(CCNC(=O)c2cnc3sc(N4CCCC4)nn3c2=O)cc1
 : ?, ?
- Cc1cccc(-c2cc3nc(C)cc(NCCCN(C)C)n3n2)c1
 : -14%, -23%

Continued:
Order of values – Vaccinia Venus, VACV mCherry inh
- CCc1ccc(-c2ccc(SCC(=O)Nc3nnc(C)s3)nn2)cc1
 : -19%, -19%
- COC(=O)c1cc(COC(=O)c2ccc(OC)c(S(=O)(=O)N3CCCC3)c2)oc1C
 : -5%, /
- O=C(OCn1nnc2ccccc2c1=O)c1cc(-c2ccccc2Cl)nc2ccccc12
 : -6%, i
- COc1ccc(/C=N/NC(=O)c2nonc2N)cc1OC
 : -6%, i
- CCCOCC(O)COc1ccccc1C(=O)N1CCOCC1 (centres undefined)
 : 1%, -12%
- CCOC(=O)c1cc(OCC)c2c(ccc3ccccc32)n1
 : -11%, -15%
- CCOc1ccc(NC(=O)CN(C)CC(=O)Nc2cccc(Cl)c2C)cc1OCC
 : -12%, -10%
- Cc1cnc(CNC(=O)c2ccc(OC3CCN(C(=O)C4CC4)CC3)cc2)cn1
 : -15%, i
- Cn1c(=O)c2ncn(C)c2n(C)c1=O
 : 0%, i
- COc1cc(CN2CCCC(CO)(Cc3cccc(Cl)c3)C2)cc2c1OCO2 (centres undefined)
 : -3%, -20%

The list continues:
Order of values – Vaccinia Venus, VACV mCherry inh
- COc1ccc(/C=C/C(=O)c2ccc3c(c2)OCO3)cc1OC
 : -10%, -12%
- COc1ccc(CN2CCN(C(C)=O)CC2)cc1OC1CCN(C(=O)c2ccc3ccccc3n2)CC1
 : 6%, -4%
- CC(=O)Nc1nnc(Cc2c[nH]c3ccccc23)s1
 : -2%, -23%
- COc1ccc(NC(=O)C(CC(=O)O)C(C)c2ccccc2)cc1 (centres undefined)
 : -1%, -6%
- Cc1nc(N2CCN(S(=O)(=O)c3ccc(F)cc3)CC2)c2c(C)c(C)sc2n1
 : -11%, -15%
- CCCN1C(=O)C(Cc2nc3ccccc3c(=O)n2-c2cccc(C)c2)c2ccccc21 (centres undefined)
 : -15%, -8%
- Cc1cccc(-n2ncc(C(=O)NCc3ccco3)c2C2CCN(C(=O)OC(C)(C)C)CC2)c1
 : -7%, -15%
- O=[N+]([O-])c1ccccc1/C=N\N1CCN(c2ccccc2)CC1
 : -13%, ?
- CC1(C)CCc2cc(S(=O)(=O)N3CCN(c4nc(-c5cccs5)nc5ccccc45)CC3)ccc2O1
 : -10%, -8%
- O=C1CC(c2ccccc2)Oc2ccc(Cl)cc21 (centres undefined)
 : -13%, i

(further entries)
Order of values – Vaccinia Venus, VACV mCherry inh
- O=C1CCn2c1c(O)c1ccccc1c2=O
 : -1%, -19%
- Fc1ccccc1NC(=S)NCc1ccc(Cl)cc1
 : -12%, -13%
- C=CCn1c(C)cc(C2=NNC(=NCc3ccccc3)SC2)c1C
 : -6%, -4%
- CCOc1ccccc1NC(=O)Cn1c(=O)oc2ccccc21
 : -14%, -10%
- O=C(Nn1c(C2CCCCC2)nc2ccccc2c1=O)c1cc(Cl)ccc1[N+](=O)[O-]
 : 2%, i
- Cc1ccc(C(C)C)c(OCC(=O)Nc2cc(-c3nc4ccccc4[nH]3)ccc2C)c1
 : -28%, -21%
- Cc1cc(C(=O)N/N=C/c2cc(N=Nc3ccccc3)ccc2O)n[nH]1
 : ?, ?
- CN(C)C(CNC(=O)c1ccc(C2SCCS2)cc1)c1ccccc1 (centres undefined)
 : -10%, -4%
- O=C(CSc1nc2c(c(=O)n1-c1ccc(Br)cc1)SCC2)NCc1ccco1
 : -4%, 4%
- COc1ccc(S(=O)(=O)Nc2ccc(S(=O)(=O)Nc3nc(C)cc(C)n3)cc2)cc1OC
 : -10%, -4%

(more compounds)
Order of values – Vaccinia Venus, VACV mCherry inh
- Cc1ccccc1Cn1nnc(C(=O)Nc2cccc(C)c2C)c1N
 : -18%, -14%
- C/C=C/c1ccc(OCCCNCC(C)O)c(OC)c1 (centres undefined)
 : -9%, /
- COc1ccc(CCNS(=O)(=O)c2cn(C)c(=O)n(C)c2=O)cc1OC
 : -2%, i
- Cc1ccccc1CNC(=O)CN(c1cccc(C)c1C)S(C)(=O)=O
 : -10%, -10%
- CCCCC(=O)Nc1nnc(C)s1
 : -5%, /
- CCCC[C@@H]1CNCCN1CCc1cccc(F)c1
 : -6%, -1%
- Cc1nc(-c2cccnc2)sc1C(=O)N/N=C/c1ccccc1Cl
 : -4%, -15%
- CC(=O)NCC(=O)N(Cc1ccco1)C1(C(=O)NC2CCCCC2)CCCCC1
 : -2%, -9%
- O=C(NNC(=O)c1ccc2ccccc2c1)c1cccc(Br)c1
 : -2%, i
